2A StopGo: High Throughput Screening for Foot and Mouth Disease Virus Antivirals. actives 1.2% (n = 410,000). human cells with a luciferase reporter of 2A StopGo recoding; control for the full effect not named in the record. Potency, µM (titrated, usually from 57.9 µM), without a hit: at the highest dose signal change, negative = less light. AID 1159524, 2015; active = well fitted falling curve with a large enough effect; inconclusive = small, poorly fitted or top-dose-only effect; inactive = no such curve, though single readings can be large or run the other way; tested in HEK293T cells; further: on the % scale 0 is the no-effect control and ±100 the full control effect; nearly all actives have a fitted effect of over 45% in size; luciferase light after 4 h
Cruzain noTriton: qHTS Assay for Promiscuous and Specific Inhibitors of Cruzain (without detergent) | Cruzipain (Trypanosoma cruzi), P25779 | purified cruzain, Z-FR-AMC fluorescence, no detergent | Potency, µM, for inactives: max response, negative = inhibition, most hits filed as inhibitors | actives 2.3% (n = 200,000);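 further: plate controls were enzyme without inhibitor for no effect and buffer without enzyme for full effect; nearly all actives have a fitted effect of over 40% in size; top concentration of the series not given in the record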
Target sequence (P25779 123-467 limits assumed): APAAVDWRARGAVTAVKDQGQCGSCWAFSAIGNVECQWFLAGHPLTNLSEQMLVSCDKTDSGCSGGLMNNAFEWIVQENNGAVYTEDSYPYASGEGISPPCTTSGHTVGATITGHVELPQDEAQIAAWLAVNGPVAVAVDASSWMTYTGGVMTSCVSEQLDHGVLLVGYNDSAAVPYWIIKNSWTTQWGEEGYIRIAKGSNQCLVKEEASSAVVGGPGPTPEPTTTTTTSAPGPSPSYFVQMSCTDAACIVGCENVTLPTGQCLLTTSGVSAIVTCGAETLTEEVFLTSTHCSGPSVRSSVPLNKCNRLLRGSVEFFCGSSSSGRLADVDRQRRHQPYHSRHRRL
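Detergent-free condition (0.00005% Triton X-100) in acetate buffer pH 5.5 with DTT. 1.5 nM enzyme and compound were pre-mixed 15 min, then 2 uM Z-FR-AMC substrate added; reaction progress from fluorescence change between first and third reads (60 s).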
SARS PLpro yeast: qHTS of Yeast-based Assay for SARS-CoV PLP | S. cerevisiae expressing SARS-CoV PLpro, growth rescue; control for the full effect not named in the record | Potency, µM (highest dose often 32.9 µM), for inactives: top-dose activity, positive = growth rescue | actives 0.19% (n = 330,000); active means well fitted rising curve with a large enough effect; inconclusive means small, poorly fitted or top-dose-only effect; inactive means no such curve, though single readings can be large or run the other way; further: 0% is about no effect; nearly all actives have a fitted effect of over 55% in size; growth read by luminescence after 48 h
Marburg entry inh: qHTS for inhibitors of binding or entry into cells for Marburg Virus. Marburg virus pseudotyped entry inhibition, cell reporter; control for the full effect not named in the record; about a third of the inactives were read at about 46 µM. Potency, µM (titrated, usually from 37.8 µM), inactives show top-dose activity change, negative = inhibition, actives largely listed as inhibitors. actives 1.8% (n = 300,000). AID 540276, 2011; active = well fitted inhibition curve with a large enough effect; inconclusive = small, poorly fitted or top-dose-only effect, or effect the other way; inactive = flat fitted curve, though single readings scatter; tested in HEK293 cells; about a fifth of its hits are not listed in these tables; further: on the % scale 0 is the no-effect control and ±100 the full control effect; luciferase read-out
RE007 growth inh: qHTS Assay for Inhibitors of the HIV-1 protein Vpr; S. pombe RE007 Vpr strain, BacTiter-Glo ATP luminescence, 24 h; control for the full effect not named in the record; Potency, µM (series often up to 92.2 µM), without a hit: at the top dose activity change, negative = less growth; actives 0.21% (n = 360,000); AID 651644, 2012; active = well fitted falling curve with a large enough effect; inconclusive = small, poorly fitted or top-dose-only effect; inactive = no such curve, though single readings can be large or run the other way;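 further: on the % scale 0 is the no-effect control and ±100 the full control effect; nearly all actives have a fitted effect of over 50% in size; the assay follows cell death caused by Vpr and the record does not say whether a fall means rescue or toxicity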
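Fission yeast strain RE007, carrying one chromosomally integrated HIV-1 vpr copy, was seeded at OD 0.01 in PMG+AL medium with 23 nL pinned compound. After 24 h at 30 °C and 99% humidity, viability was read by BacTiter-Glo luminescence.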
NS1 inh: qHTS Assay for Inhibitors of Influenza NS1 Protein Function. Potency, µM (series often up to 46.1 µM), inactives show at the highest dose activity, positive = more growth. S. cerevisiae slowed by influenza A NS1, growth recovery by OD600. AID 2326, 2010. actives 0.4% (n = 270,000); active means well fitted rising curve with a large enough effect; inconclusive means small, poorly fitted or top-dose-only effect; inactive means no such curve, though single readings can be large or run the other way; further: nearly all actives have a fitted effect of over 50% in size
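A cell-based growth assay was used: compounds that relieve NS1-induced slow growth of budding yeast raise OD600. Assay medium was yeast nitrogen base with ammonium sulphate and -URA supplement, pH 6.0, with 2% galactose.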
Cruzain inh Det: qHTS Assay for Promiscuous and Specific Inhibitors of Cruzain (with detergent); Cruzipain (Trypanosoma cruzi), P25779; purified cruzain, Z-FR-AMC fluorescence, 0.01% Triton; Potency, µM, for the others: max response, negative = inhibition, hits mostly inhibitors; actives 0.43% (n = 200,000);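 further: plate controls were neutral wells for no effect and buffer without enzyme for full effect; nearly all actives have a fitted effect of over 40% in size; top concentration of the series not given in the record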
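Detergent-containing arm of a paired screen for aggregation-based inhibition: 0.01% Triton X-100 present. Cruzain at 1.5 nM cleaved 2 uM Z-FR-AMC at pH 5.5 with 5 mM DTT; AMC fluorescence gain over 60 s measured activity.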
Lassa entry inh: qHTS for Inhibitors of binding or entry into cells for Lassa Virus; actives 1.2% (n = 300,000); Potency, µM (highest dose often 37.9 µM), for inactives: at the highest dose activity change, negative = inhibition, actives largely listed as inhibitors; Lassa virus pseudotype entry inhibition, cell reporter; control for the full effect not named in the record; active means well fitted inhibition curve with a large enough effect; inconclusive means small, poorly fitted or top-dose-only effect, or effect the other way; inactive means flat fitted curve, though single readings scatter; tested in HEK293 cells; further: on the % scale 0 is the no-effect control and ±100 the full control effect; nearly all actives have a fitted effect of over 50% in size; luciferase read-out
Active calls of the source: *; ? = inconclusive; · = no result given; [ ] = dose if it differs, or a comment. Unless noted, the call rests on the fitted dose curve; in most records, active means well fitted curve in the direction sought with a large enough effect; inconclusive means small, poorly fitted or top-dose-only effect, or another doubt; inactive means no such curve, though single readings can be large; an effect the other way counts as inactive or inconclusive. Potency means the concentration at half of the fitted maximal effect. Outcome played no part in choosing rows. About 4.7% of those tested had a hit in this group.

SMILES | 2A StopGo | Cruzain noTriton | SARS PLpro yeast | Marburg entry inh | RE007 growth inh | NS1 inh | Cruzain inh Det | Lassa entry inh
O=C(CN1CCCN(Cc2cccc(Cl)c2)S1(=O)=O)Nc1ccc2c(c1)OCCO2 | -6% | -9% | · | · | · | · | -3.5% | -27%[46.1 µM]
COc1ccc(C(=O)OCC(=O)Nc2cc(C)on2)c(OC)c1OC | 12% | · | 2% | -19%[46.1 µM] | -9% | · | · | ·
COc1ccc(N(CC(=O)NCCC2=CCCCC2)S(=O)(=O)c2ccccc2F)cc1 | -10% | · | -4% | ? | 6% | 7% | · | 5%
Cc1ccc(C(C)C)c(OCC(=O)NC2CCN(C)CC2)c1 | -20% | · | 28% | · | 3% | 2% | · | ·
CNc1nc(-c2ccc3c(c2)CCN3C(=O)c2cccc(F)c2)cs1 | -22% | · | -11% | · | -8% | -32% | · | ·
N#Cc1c(N)nc2c(c1-c1ccc(F)cc1)c(=O)nc1sccn12 | -18% | · | 1% | 0%[46.1 µM] | ? | · | · | 11%
Cc1ccc(C)c(NC(=O)Cn2c(=O)n(Cc3ccccc3)c(=O)c3oc4ccccc4c32)c1 | -4% | -26% | · | · | · | · | 0.1% | 20%[46.1 µM]
CCCOc1ccc(C(C)=O)cc1CC(C(N)=O)C(N)=O | 0% | -6% | -8% | 1% | 22% | 8% | 0.3% | 7%
N/C(=N\OC(=O)COc1ccccc1)c1ccncc1 | 41%[activator] | · | 0% | · | 3% | -6% | · | ·
CN(C)P(=S)(Nc1ccccc1)C(Cl)(Cl)Cl (stereo unspecified) | -11% | · | 1% | 5%[46.1 µM] | 5% | · | · | -3%
Cc1ccc(C(C)NC(=O)c2ccncc2)cc1C (stereo unspecified) | -13% | · | -4% | 18%[46.1 µM] | 1% | -16% | · | 0%[46.1 µM]
Cc1c(C(=O)NC(=S)Nc2ccc(NC(=O)c3cccs3)cc2)cccc1[N+](=O)[O-] | ? | · | · | 1% | 5% | · | · | -25%
COC(=O)c1ccccc1NC(=O)N1CCN(c2ccc(OC)cc2)CC1 | -10% | · | 0% | -12%[46.1 µM] | 3% | 4% | · | 7%
O=c1cc[nH]c2ccc(Cl)cc12 | -7% | 0% | 8% | 18% | 8% | 26% | -4.4% | 11%
COc1ccc(C(CNC(=O)CSc2ccc(Br)cc2C)N2CCOCC2)cc1 (stereo unspecified) | -27% | · | 4% | -28% | -17% | · | · | -10%
Cc1cc(C)cc(NC(=O)CCS(=O)(=O)c2ccc3nc(C)sc3c2)c1 | -6% | -2% | · | · | · | · | -0.3% | -1%[46.1 µM]
CC(=O)Nc1cccc(C(=O)OC2CCOC2=O)c1 (stereo unspecified) | -18% | · | 2% | 17%[46.1 µM] | -5% | 13% | · | 23%[46.1 µM]
COc1ccc2c(c1)SC1=NCCS(=O)(=O)N12 | 19% | -3% | 1% | 17% | -2% | -3% | 2.6% | 18%
CSc1ccccc1C(=O)OCC(=O)N1CCCC1=O | 13% | · | 1% | ? | -20% | · | · | 6%
COc1ccc(-c2cn[nH]c2C)cc1 | -3% | · | 0% | 0%[14.2 µM] | 2% | -1% | · | -27%
COc1ccc(NC(=O)C2CCCN2C(=O)Oc2ccccc2)cc1 (stereo unspecified) | -2% | · | 0% | -3%[46.1 µM] | -8% | -2% | · | -5%
COc1ccc(C(=O)N2CCN(C3CCN(Cc4ccccc4)CC3)CC2)cc1OC | 3% | 7% | 2% | -5% | -17% | 2% | 6.1% | 2%
CCN(CC)S(=O)(=O)c1ccc(Cl)nc1 | 5% | · | 4% | -2%[46.1 µM] | -19% | · | · | -5%
COc1cc(/C=N/NC(=O)/C(=C\c2ccc3c(c2)OCO3)NC(=O)c2ccccc2)ccc1O | -1% | -6% | -15% | 14% | 7% | -15% | -13% | ?
Nn1c(Nc2ccc(Cl)cc2)nncc1=O | -3% | · | -3% | 2%[46.1 µM] | -8% | · | · | -10%
COc1ccc(-c2ccc(OC)c([C@H]3[C@@H]4C=CCC[C@@]4(C)C(=O)N3Cc3ccccc3)c2)cc1OC | 40%[activator] | · | -4% | · | -4% | 13% | · | ·
CN1CCN(C(c2ccc(Br)cc2)c2cc(Cl)c3cccnc3c2O)CC1 (stereo unspecified) | ? | · | · | ? | -6% | -128% | · | ?
Cc1cc2oc(=O)cc(CSc3nc(N)cc(N)n3)c2cc1C | 12% | -10% | 15% | ? | -2% | 2% | -7.1% | 9%
COc1ccc(S(=O)(=O)N2CCCCCC2)cc1C(=O)NC1(C)CCS(=O)(=O)C1 (stereo unspecified) | 21% | · | 5% | -4% | -9% | 0% | · | 0%
Cc1onc(COc2ccccc2O)c1Br | 24% | -1% | -7% | ? | -1% | -14% | 0.3% | -5%
CCOC(=O)c1ccc(NC(=O)CN2C(=O)NC3(CCCCCC3)C2=O)cc1 | -8% | · | 0% | 15%[46.1 µM] | 4% | · | · | -6%[46.1 µM]
O=C(CCc1ccccc1)Nc1ccc(N2CCOCC2)c(Cl)c1 | -6% | -7% | -12% | 19% | -21% | -5% | -4.7% | 19%
CCC(CC)C(=O)Nc1nnc2n1CCS2 | -18% | -4% | · | · | · | · | 0.1% | 3%[46.1 µM]
OC(CN1CCN(c2cccc(Cl)c2)CC1)c1ccc(F)cc1 (stereo unspecified) | 0% | · | 1% | 1%[46.1 µM] | -14% | 2% | · | 23%[46.1 µM]
CCOC(=O)c1cnn(CCOC(=O)c2ccccc2F)c1NC(=O)c1ccccc1F | 7% | 3% | 13% | 0% | -3% | -5% | -1.9% | ?
CCCCOc1ccc(C(=O)NCC2(c3ccc(OC)cc3)CCOCC2)cc1 | -18% | ? | 3% | ? | 0% | -10% | -7.3% | 2.8µM*
CC(C)N(CCNC(=O)c1cn(C)c2ccc(S(=O)(=O)N(C)C)cc2c1=O)Cc1ccccc1 | 2% | 0% | -3% | 6% | -8% | -7% | -6.1% | ·
CCOc1ccc(-c2nnc(-c3ccco3)o2)cc1OCC | 34%[activator] | 22% | -3% | -24% | 1% | -61% | -2.8% | 17%
Cc1ccc(NC(=O)c2ccc(CSc3ccccn3)cc2)c(O)c1 | -1% | · | -1% | · | -13% | -4% | · | ·
COc1cc(C(CC(=O)Nc2ccc(C)cn2)N2Cc3ccccc3C2=O)cc(OC)c1OC (stereo unspecified) | 0% | · | -1% | -2% | -13% | -7% | · | 10%

Next section (two carried over from the part before).
SMILES | 2A StopGo | Cruzain noTriton | SARS PLpro yeast | Marburg entry inh | RE007 growth inh | NS1 inh | Cruzain inh Det | Lassa entry inh
Cc1ccc(NC(=O)c2ccc(CSc3ccccn3)cc2)c(O)c1 | -1% | · | -1% | · | -13% | -4% | · | ·
COc1cc(C(CC(=O)Nc2ccc(C)cn2)N2Cc3ccccc3C2=O)cc(OC)c1OC (stereo unspecified) | 0% | · | -1% | -2% | -13% | -7% | · | 10%
COc1ccc(C(C(=O)NC(C)(C)C)N(CCO)C(=O)CCC(=O)Nc2cc(C)on2)cc1 (stereo unspecified) | 14% | · | 1% | 8%[46.1 µM] | 8% | 8% | · | ?
Cn1c(OCc2cccnc2)nc2c1c(=O)n(Cc1ccc(Cl)cc1)c(=O)n2C | ? | · | · | ? | 3%[3.69 µM] | · | · | 16µM*
O=c1n(Cc2cccc(F)c2)c2ccccc2c2nc(-c3ccccc3)nn12 | -1% | -7% | · | -3%[46.1 µM] | · | · | 0.2% | 10%[46.1 µM]
CCCN(CC(=O)Nc1cc(C)on1)CC(=O)Nc1ccc(F)c(F)c1F | -21% | · | 3% | -2% | -20% | · | · | ?
CCCCN(c1ccccc1)S(=O)(=O)c1cccc2cccnc12 | 7% | · | -3% | · | -22% | -1% | · | ·
COc1ccccc1OCC(O)CNCc1ccc2c(c1)OCO2 (stereo unspecified) | -1% | · | -1% | ? | -4% | 3% | · | -3%
Fc1ccc(CN2CCN(C(=S)NCCc3ccccc3)CC2)c(Cl)c1 | -23% | · | 1% | ? | -7% | -1% | · | ?
CCc1ccc(-n2nc(CO)c(C(=O)NCc3ccccc3Cl)n2)cc1 | -7% | -6% | · | 0%[46.1 µM] | · | · | -1.8% | 1%[46.1 µM]
Cc1ccc(-n2nc3cc(C)c(NC(=O)c4ccc(-c5ccccc5)o4)cc3n2)cc1 | 31%[activator] | -3% | · | · | · | · | -2.5% | 25%[46.1 µM]
CCC(C(=O)NCCCN1CCCC1=O)n1c2ccccc2c2nc(=O)cc(C)n21 (stereo unspecified) | -5% | · | -1% | · | -5% | 3% | · | ·
COc1cc(C(=O)OCC(=O)Nc2cc(C)on2)cc(OC)c1OC | -1% | -1% | -5% | -5% | 16% | 12% | 0.8% | -13%
CCN1C(=O)C2C(c3ccc(O)c(OC)c3)NC(C)(C(=O)OC)C2C1=O (stereo unspecified) | 17% | 3% | 1% | -1%[46.1 µM] | -5% | -1% | -3.1% | -10%
Cc1nc(-c2ccc(Cl)cc2)sc1CCNC(=O)c1ccco1 | 13% | -9% | · | · | · | · | -20% | 6%[46.1 µM]
O=C(CN1CCN(c2ncccn2)CC1)Nc1ccccc1-n1cccc1 | · | 12% | 14µM* | ? | 4% | -34% | -4.9% | -16%
N#CC1C(=O)c2ccccc2C1c1ccccc1 (stereo unspecified) | -23% | · | · | 1% | 8.9µM* | · | · | -25%

Complete entries from above:
O=C(CN1CCN(c2ncccn2)CC1)Nc1ccccc1-n1cccc1 reads 2A StopGo: ·; Cruzain noTriton: 12%; SARS PLpro yeast: 14µM*; Marburg entry inh: ?; RE007 growth inh: 4%; NS1 inh: -34%; Cruzain inh Det: -4.9%; Lassa entry inh: -16%
Cc1nc(-c2ccc(Cl)cc2)sc1CCNC(=O)c1ccco1 reads 2A StopGo: 13%; Cruzain noTriton: -9%; SARS PLpro yeast: ·; Marburg entry inh: ·; RE007 growth inh: ·; NS1 inh: ·; Cruzain inh Det: -20%; Lassa entry inh: 6%[46.1 µM]
